High-throughput results from PubChem.
Vaccinia Venus – qHTS for Stage-Specific Inhibitors of Vaccinia Orthopoxvirus: Venus Reporter Primary qHTS | Potency, µM (highest dose often 36.5 µM), for inactives: at the top dose activity change, negative = inhibition, hits mostly inhibitors | actives 0.46% (n = 330,000) | Vaccinia virus Venus reporter expression, fluorescence; active means well fitted inhibition curve with a large enough effect; inconclusive means small, poorly fitted or top-dose-only effect; inactive means no such curve, though single readings can be large or run the other way; tested in A549 cells; further: nearly all actives have a fitted effect of over 30% in size; inactives centre near -10
VACV mCherry inh – qHTS for Stage-Specific Inhibitors of Vaccinia Orthopoxvirus: mCherry Reporter Primary qHTS | actives 0.63% (n = 310,000) | Potency, µM (doses to about 36.5 µM), for inactives: at the highest dose activity change, negative = inhibition, most hits filed as inhibitors | Vaccinia virus mCherry reporter infection, fluorescence; about a quarter of the inactives have no number; active = well fitted inhibition curve with a large enough effect; inconclusive = small, poorly fitted or top-dose-only effect; inactive = no such curve, though single readings can be large or run the other way; tested in A549 cells; further: nearly all actives have a fitted effect of over 35% in size; inactives centre near -10
An asterisk follows results filed as active; i = inactive; ? = inconclusive; · = not tested or not shown; [ ] = remark or other dose. On the % scale 0 is the no-effect control and ±100 the full control effect; potency means the concentration at half of the fitted maximal effect.

SMILES	Vaccinia Venus	VACV mCherry inh
CC1Cc2ccccc2N1C(=O)CSc1nc(-c2ccco2)cc(C(F)(F)F)n1 (centres undefined)	-8%	-13%
Cc1cc(C)c(NC(=O)CSc2nc(=O)n(Cc3ccncc3)c3c2CCC3)c(C)c1	-15%	-23%
CC1CN(C(=O)Nc2ccc(F)cc2F)CC(C)O1 (centres undefined)	-9%	i
CN(Cc1ccccc1)S(=O)(=O)c1ccc(OCC(=O)NCc2ccncc2)cc1	-22%	-18%
Cc1cc(C)nc(N/N=C/c2cc3c(cc2[N+](=O)[O-])OCO3)n1	-15%	-11%
Cc1cc(NC(=O)CSCC(=O)Nc2ccccc2Oc2ccccc2)no1	-11%	-2%
C=CCn1c(=O)/c(=C/c2ccc(O)cc2)s/c1=C(/C#N)c1nnc2n1CCCCC2	180%[activator]	0%
CCOC(=O)c1sc(N(Cc2ccccc2)C(=O)CSc2nnc(C3CC3)n2N)nc1C	-29%	?
Nc1ccc(C2(c3ccc(N)cc3)CCCCC2)cc1	2%	5%
CC(C)C(NC(=O)/C=C/c1ccc(F)cc1)C(C)C	-14%	·
CCCCOc1ccccc1N	2%	-9%
NCCNCCNCCN	-19%	i
COC(=O)c1oc2ccccc2c1N	-16%	i
CC(=O)OC1C[C@@]2(C)C(c3ccoc3)C[C@H]3O[C@@]32[C@@]2(C)C(=O)C(O)=C3C(C)(C)C(=O)C=C[C@]3(C)C12 (some centres undefined)	8.9µM*	7.1µM*
CCOC(=O)c1ccc(NC(=O)c2nc[nH]c2C(=O)N[C@@H](CC(C)C)C(=O)OCc2ccccc2)cc1	-14%	-12%
COc1ccccc1Nc1nc(N)nc(CN2CCc3ccccc3C2)n1	-28%	i
O=C(Nc1oc2ccccc2c(=O)c1-c1ccccc1)c1ccco1	-16%	-25%
CCOc1ccccc1OCC(=O)OCc1csc(CC(=O)Nc2ccccc2C)n1	-15%	i
CCOc1ccccc1OCCCC(=O)N(CC)CC(=O)Nc1ccc(NC(C)=O)cc1	-13%	i
O=C(O)c1cc(=S)nc[nH]1	-14%	i
CC(=O)c1ccccc1S(=O)(=O)N1CCN(c2nc(-c3cccs3)nc3ccccc23)CC1	-7%	i
O=C(N/N=C\c1ccc(O)c([N+](=O)[O-])c1)c1ccccc1-n1cccc1	-14%	-14%
CC(=O)Nc1ccc(S(=O)(=O)NCCc2ccc(F)cc2)cc1	-2%	-12%
OC(Cc1ccccc1)c1ncc(-c2ccc3ccccc3c2)[nH]1 (centres undefined)	-26%	-6%

Rewritten with values under each structure: part of the list above
The line under a structure holds: Vaccinia Venus, VACV mCherry inh
COC(=O)c1oc2ccccc2c1N
→ -16%, i
CC(=O)OC1C[C@@]2(C)C(c3ccoc3)C[C@H]3O[C@@]32[C@@]2(C)C(=O)C(O)=C3C(C)(C)C(=O)C=C[C@]3(C)C12 (some centres undefined)
→ 8.9µM*, 7.1µM*
CCOC(=O)c1ccc(NC(=O)c2nc[nH]c2C(=O)N[C@@H](CC(C)C)C(=O)OCc2ccccc2)cc1
→ -14%, -12%
COc1ccccc1Nc1nc(N)nc(CN2CCc3ccccc3C2)n1
→ -28%, i
O=C(Nc1oc2ccccc2c(=O)c1-c1ccccc1)c1ccco1
→ -16%, -25%
CCOc1ccccc1OCC(=O)OCc1csc(CC(=O)Nc2ccccc2C)n1
→ -15%, i
CCOc1ccccc1OCCCC(=O)N(CC)CC(=O)Nc1ccc(NC(C)=O)cc1
→ -13%, i

(continued)
SMILES	Vaccinia Venus	VACV mCherry inh
O=c1oc(-c2ccc(O)c(O)c2)cc2cccc(O)c12	-1%	-1%
CC(C)(c1ccc(O)cc1)c1ccc(O)c(C(=O)O)c1	-6%	i
COc1ccc(CCNC(=O)c2ccc3c(c2)N(Cc2ccccc2F)C(=O)c2ccccc2S3(=O)=O)cc1OC	-16%	-16%
Cn1cccc1/C=N/n1c(-c2ccccc2)n[nH]c1=S	11%	6%
COc1ccccc1N1CCN(S(=O)(=O)c2cn(C)c(=O)n(C)c2=O)CC1	7%	-13%
CCc1nc2ccc(C(=O)Nc3cc(-c4ccccc4)ccc3OC)cn2c1N(C)CCC(C)C	-24%	?
COc1ccc2cc3cc(C(=O)NCCN4CCc5ccccc5C4)sc3nc2c1	-8%	-7%
CC(C)NS(=O)(=O)c1ccc(OCC(=O)N2CCN(c3ccccc3F)CC2)cc1	-9%	-12%
O=S(=O)(Nc1nc2ccccc2nc1N1CCc2ccccc2C1)c1ccc(Cl)cc1	-15%	-8%
N/C(=N\OC(=O)CCCN1C(=O)c2ccccc2C1=O)c1ccc(Br)cc1	-9%	-14%
CCc1nnc(NC(=O)C2c3ccccc3Oc3ccccc32)s1	-16%	·
CCCOc1ccccc1C(=O)N1CCCCC1CCN1CCOCC1 (centres undefined)	0%	-4%

Part of the list above, set out differently:
structure | Vaccinia Venus | VACV mCherry inh
CC(C)(c1ccc(O)cc1)c1ccc(O)c(C(=O)O)c1 | -6% | i
COc1ccc(CCNC(=O)c2ccc3c(c2)N(Cc2ccccc2F)C(=O)c2ccccc2S3(=O)=O)cc1OC | -16% | -16%
Cn1cccc1/C=N/n1c(-c2ccccc2)n[nH]c1=S | 11% | 6%
COc1ccccc1N1CCN(S(=O)(=O)c2cn(C)c(=O)n(C)c2=O)CC1 | 7% | -13%

Following part:
SMILES	Vaccinia Venus	VACV mCherry inh
CCN1C(=O)N[C@@H](c2cccs2)C(C(=O)OC)=C1C	-8%	i
C=C(C)Cn1c(SCC(=O)Nc2cccc(C)c2)nc2sc3c(c2c1=O)CCCC3	-10%	-22%
CCC(C)(C)NC(=O)C(c1ccccc1Cl)N(C(=O)CCC(=O)Nc1cc(C)on1)c1ccc(NC(C)=O)cc1 (centres undefined)	4%	-14%
O=[N+]([O-])c1cc2c(c3cccnc13)COCO2	-2%	-14%
Cc1ccnc2c1ccc1ccccc12	-5%	5%
CSc1ccc(CNc2ccc(Cl)cc2)cc1	-15%	-7%
Cc1ccc(-c2csc(NC(=O)C3CC=CCC3C(=O)O)c2C(=O)OC(C)C)cc1 (centres undefined)	?	·
CC1CC(=O)N(C)c2cc([N+](=O)[O-])ccc2N1 (centres undefined)	-11%	i
